From PubChem
NS1 function inh: inhibitors of influenza NS1 protein function. Potency, µM (top dose mostly 46.1 µM), inactives show at the top dose activity, positive = more growth. hit rate 0.4% among 270,000. S. cerevisiae slowed by influenza A NS1, growth recovery by OD600; note: actives are rising curves; nearly all actives have a fitted effect of over 50% in size
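Growth recovery, yeast-based: influenza A NS1 expressed in S. cerevisiae causes slow growth, and suppressors are detected by OD600. The parent strain without NS1 is used as positive control.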
Cruzain Triton: inhibitors of Trypanosoma cruzi cruzain with detergent; hit rate 0.43% among 200,000; AID 1478; purified cruzain, Z-FR-AMC fluorescence, 0.01% Triton; P25779; Potency, µM, inactives show max response, negative = inhibition, actives largely listed as inhibitors; active = well fitted curve in the direction sought with a large enough effect; inconclusive = small, poorly fitted or top-dose-only effect, or another doubt; inactive = no such curve, though single readings can be large; an effect the other way counts as inactive or inconclusive;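 note: plate controls were neutral wells for no effect and buffer without enzyme for full effect; nearly all actives have a fitted effect of over 40% in size; top concentration of the series not given in the record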
Target sequence (P25779 123-467 limits assumed): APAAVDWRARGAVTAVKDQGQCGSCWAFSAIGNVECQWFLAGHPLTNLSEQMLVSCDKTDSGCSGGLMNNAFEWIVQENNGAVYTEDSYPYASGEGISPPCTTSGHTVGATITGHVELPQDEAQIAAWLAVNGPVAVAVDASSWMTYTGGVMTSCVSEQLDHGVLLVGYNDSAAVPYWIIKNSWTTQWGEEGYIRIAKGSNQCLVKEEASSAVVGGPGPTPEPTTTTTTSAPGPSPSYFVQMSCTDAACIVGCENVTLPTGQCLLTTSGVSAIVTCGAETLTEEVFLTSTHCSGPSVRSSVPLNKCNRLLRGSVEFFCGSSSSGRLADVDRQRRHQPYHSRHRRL
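Compounds were screened in titration against cruzain (1.5 nM) with 0.01% Triton X-100 to counter colloidal aggregation. Activity was the AMC fluorescence increase over 60 s after adding 2 uM Z-FR-AMC at pH 5.5.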
RE007 growth inh: less growth of the S. pombe RE007 Vpr strain | S. pombe RE007 Vpr strain, BacTiter-Glo ATP luminescence, 24 h; control for the full effect not named in the record | Potency, µM (top dose mostly 92.2 µM), without a hit: at the top dose activity change, negative = less growth | hit rate 0.21% among 360,000 | AID 651644; active = well fitted falling curve with a large enough effect; inconclusive = small, poorly fitted or top-dose-only effect; inactive = no such curve, though single readings can be large or run the other way;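 note: % is set by controls: 0 for no effect and ±100 for the full control effect; nearly all actives have a fitted effect of over 50% in size; the assay follows cell death caused by Vpr and the record does not say whether a fall means rescue or toxicity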
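Fission yeast RE007 carrying one integrated HIV-1 vpr copy, seeded at OD 0.01 in PMG+AL medium with 23 nL pinned compound. Grown 24 h at 30 degrees; viability read by BacTiter-Glo luminescence after 5 min.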
SARS PLpro yeast: inhibitors of SARS-CoV papain-like protease in yeast; Potency, µM (highest dose often 32.9 µM), for inactives: at the top dose activity, positive = growth rescue; AID 485353; hit rate 0.19% among 330,000; S. cerevisiae expressing SARS-CoV PLpro, growth rescue; control for the full effect not named in the record; note: 0% is about no effect; nearly all actives have a fitted effect of over 55% in size; growth read by luminescence after 48 h
2A StopGo: lowers the luciferase signal of an FMDV 2A StopGo reporter; Potency, µM (series often up to 57.9 µM), for inactives: at the top dose signal change, negative = less light; hit rate 1.2% among 410,000; human cells with a luciferase reporter of 2A StopGo recoding; control for the full effect not named in the record; active = well fitted falling curve with a large enough effect; inconclusive = small, poorly fitted or top-dose-only effect; inactive = no such curve, though single readings can be large or run the other way; tested in HEK293T cells; note: % is set by controls: 0 for no effect and ±100 for the full control effect; nearly all actives have a fitted effect of over 45% in size; luciferase light after 4 h
Cruzain inh noDet: cruzain (T. cruzi) inhibition without detergent | P25779 | purified cruzain, Z-FR-AMC fluorescence, no detergent | Potency, µM, inactives show max response, negative = inhibition, hits mostly inhibitors | hit rate 2.3% among 200,000; active = well fitted curve in the direction sought with a large enough effect; inconclusive = small, poorly fitted or top-dose-only effect, or another doubt; inactive = no such curve, though single readings can be large; an effect the other way counts as inactive or inconclusive;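 note: plate controls were enzyme without inhibitor for no effect and buffer without enzyme for full effect; nearly all actives have a fitted effect of over 40% in size; top concentration of the series not given in the record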
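Purified cruzain at 1.5 nM, pre-incubated 15 min with compound at room temperature in 100 mM sodium acetate pH 5.5, 5 mM DTT, 0.00005% Triton X-100. Reaction started with 2 uM Z-FR-AMC; AMC fluorescence increase over 60 s gives rate.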
MARV entry inh: blocks Marburg virus binding to or entry into cells. Marburg virus pseudotyped entry inhibition, cell reporter; control for the full effect not named in the record; about a third of the inactives were read at about 46 µM. Potency, µM (top dose mostly 37.8 µM), inactives show at the top dose activity change, negative = inhibition, hits mostly inhibitors. hit rate 1.8% among 300,000. AID 540276; active = well fitted inhibition curve with a large enough effect; inconclusive = small, poorly fitted or top-dose-only effect, or effect the other way; inactive = flat fitted curve, though single readings scatter; tested in HEK293 cells; about a fifth of its hits are not listed in these tables; note: % is set by controls: 0 for no effect and ±100 for the full control effect; luciferase read-out
LASV entry inh: inhibitors of Lassa virus binding or cell entry; Potency, µM (top dose mostly 37.9 µM), for inactives: top-dose activity change, negative = inhibition, most hits filed as inhibitors; AID 540256; Lassa virus pseudotype entry inhibition, cell reporter; control for the full effect not named in the record; hit rate 1.2% among 300,000; active means well fitted inhibition curve with a large enough effect; inconclusive means small, poorly fitted or top-dose-only effect, or effect the other way; inactive means flat fitted curve, though single readings scatter; tested in HEK293 cells; note: % is set by controls: 0 for no effect and ±100 for the full control effect; nearly all actives have a fitted effect of over 50% in size; luciferase read-out
Active calls of the source: *; u = inconclusive; x = no result given; & = joins results of further samples; [ ] = another dose, or the depositor's remark. Unless noted, calls come from the whole dose curve; as a rule, active means well fitted rising curve with a large enough effect; inconclusive means small, poorly fitted or top-dose-only effect; inactive means no such curve, though single readings can be large or run the other way. Potency is the fitted concentration of half-maximal effect. Rows were taken by chance, and some 4.8% of all compounds hit somewhere here.

nr	smiles	NS1 function inh	Cruzain Triton	RE007 growth inh	SARS PLpro yeast	2A StopGo	Cruzain inh noDet	MARV entry inh	LASV entry inh
1	Cc1[nH]n(-c2ccccc2)c(=O)c1N=Nc1ccccc1C(=O)O	u	x	-1.0%	1.0%	38.9%[activator]	x	x	x
2	Cc1cccc(NC(=O)C2CCCN(S(=O)(=O)c3cccc4nonc34)C2)c1C (stereo not given)	x	2.9%	x	x	3.6%	-9.7%	-9.6%[46.1 µM]	8.8%[46.1 µM]
3	CC1CCCCN1C(=O)Cc1ccc(F)cc1 (stereo not given)	7.4%	4.0%	19.3%	-3.9%	-3.2%	-6.1%	8.3%	16.5%
4	CCOc1ccc(-c2cn3c(n2)sc2cc(C(=O)NC4CCCc5ccccc54)ccc23)cc1 (stereo not given)	x	-2.7%	x	x	31.4%[activator]	-2.0%	x	28.0%[46.1 µM]
5	COc1cccc(C(=O)N2CCN(C(=O)c3cccc4ccccc34)CC2)c1OC	-8.7%	-5.2%	7.3%	-4.3%	-16.3%	11.6%	u	25.1%
6	Cc1nc2ccc(NC(=O)N3CCN(c4ccccn4)CC3)cc2s1	-14.0%	0.4%	-27.4%	-1.0%	-24.4%	1.5%	-0.8%	9.0%
7	CCOC(=O)Cc1csc(N/N=C\c2ccccc2OC)n1	20.1%	x	-5.0%	-8.3%	20.7%	x	x	x
8	C=CCNC(=S)N1CC2(C)CN(C(=S)NCC=C)CC(C)(C1)C2=O	-3.0%	x	7.7%	-0.3%	44.6%[activator]	x	x	x
9	CC(=O)c1ccc(-n2nnnc2SCC(=O)Nc2cccc(NC(=O)c3ccco3)c2)cc1	6.8%	2.1%	8.0%	10.0%	0.0%	u	u	u
10	CC(C)c1onc(C(=O)N2CCC3(CC2)OCCO3)c1[N+](=O)[O-]	2.0%	x	8.0%	1.6%	-3.2%	x	-12.9%[46.1 µM]	u
11	Cc1ccc(NC(=O)c2cc(NC(=O)c3ccco3)ccc2N2CCOCC2)cc1	-10.0%[9.22 µM]	-7.8%	-2.7%	-2.0%	4.4%	u	-12.2%	u
12	O=C(NCCc1ccccc1)c1oc2ccccc2c1COc1ccccc1	-15.7%	-2.2%	10.8%	4.7%	17.0%	-3.1%	u	8.7%
13	CC(=O)NNC(=O)c1[nH]c2ccc(Cl)cc2c1-c1ccccc1	-0.8%	x	0.1%	-0.7%	-1.1%	x	x	x
14	O=C(CN1C(=O)/C(=C2\SC(=S)N(C3CCS(=O)(=O)C3)C2=O)c2ccccc21)Nc1ccccc1 (stereo not given)	3.5%	2.0%	-7.0%	-4.6%	u	-5.6%	26.8%	15.1%
15	CCOc1ccccc1Nc1sc(C(=O)c2ccc(Cl)cc2)c(N)c1C#N	x	0.4%	x	x	-9.8%	10.2%	x	u
16	C#CCN(C(=O)c1cc(COc2cccc(C(F)(F)F)c2)on1)C1CCCCC1	13.1%	x	6.9%	4.6%	0.0%	x	0.3%	-6.0%
17	CC(C)(C)NC(=O)N1CCN(c2ncccc2C(F)(F)F)CC1	-0.7%	x	0.5%	0.4%	-7.8%	x	x	x
18	O=S(=O)(NCCOc1ccccc1)c1ccc2ccccc2c1	6.1%	-9.7%	-7.5%	-0.6%	23.8%	-1.0%	u	-2.4%
19	c1ccc(CNc2ccccn2)cc1	2.2%	x	12.4%	1.4%	-1.0%	x	x	x
20	CCN(CC(=O)Nc1c(F)cccc1F)C(=O)c1ccc(-n2cncn2)c([N+](=O)[O-])c1	x	x	11.3%	5.0%	-12.1%	x	u	1.7%
21	Cc1oc2cc3oc(=O)ccc3cc2c1C	-5.8%	x	0.0%	0.5%	59.3%[activator]	x	x	x
22	CC(C)[C@H](NC(=O)CCCn1nnc2ccccc2c1=O)C(=O)O	5.1%	x	-9.4%	0.3%	0.0%	x	6.9%[46.1 µM]	23.4%[46.1 µM]
23	CN1CCN(c2ccc(C(N)=O)cc2[N+](=O)[O-])CC1	-16.0%	-0.3%	5.2%	-13.7%	-16.2%	-2.0%	0.4%	16.1%
24	Cc1ccc2oc(=O)c3cc(C(=O)Nc4cc(-c5cccc(F)c5)no4)sc3c2c1	2.9%	2.8%	x	9.0%	x	5.4%	-5.8%	0.1%
25	CCOC(=O)N1CCN(C(=O)CSc2ncnc3ccccc23)CC1	2.3%	-5.7%	-0.4%	3.0%	-7.9%	-10.7%	3.3%	6.7%
26	CC(C)(C)NC(=O)c1cnn2c(C(F)F)cc(-c3ccccc3)nc12	x	1.2%	x	x	-23.1%	-10.8%	x	-23.5%[46.1 µM]
27	O=C(COc1ccccc1Cl)N(Cc1ccco1)Cc1ccco1	x	-6.2%	x	x	-15.5%	-4.7%	0.7%[46.1 µM]	14.0%[46.1 µM]
28	Cc1cc(C(=O)NNc2c(Cl)cccc2Cl)no1	1.0%	x	8.0%	-2.4%	2.6%	x	-6.3%	x
29	CCOC(=O)/C(N=Nc1ccc2c(c1)OCO2)=C(\C)O	x	x	-3.4%	1.0%	32.8%	x	u	x
30	Cc1cccc(OCc2nnc(SCC(=O)Nc3ccc(C)c(Cl)c3)o2)c1	-1.9%	-4.1%	17.9%	-1.5%	6.0%	-13.5%	7.5%	u

Part of the list above, reformatted:
#21 Cc1oc2cc3oc(=O)ccc3cc2c1C
  NS1 function inh: -5.8%
  Cruzain Triton: x
  RE007 growth inh: 0.0%
  SARS PLpro yeast: 0.5%
  2A StopGo: 59.3%[activator]
  Cruzain inh noDet: x
  MARV entry inh: x
  LASV entry inh: x
#22 CC(C)[C@H](NC(=O)CCCn1nnc2ccccc2c1=O)C(=O)O
  NS1 function inh: 5.1%
  Cruzain Triton: x
  RE007 growth inh: -9.4%
  SARS PLpro yeast: 0.3%
  2A StopGo: 0.0%
  Cruzain inh noDet: x
  MARV entry inh: 6.9%[46.1 µM]
  LASV entry inh: 23.4%[46.1 µM]

Additional results:
nr	smiles	NS1 function inh	Cruzain Triton	RE007 growth inh	SARS PLpro yeast	2A StopGo	Cruzain inh noDet	MARV entry inh	LASV entry inh
31	O=C1Nc2c(ccc(Cl)c2Cl)C(=O)C1(F)c1ccccc1 (stereo not given)	0.3%	x	9.8%	0.5%	-6.4%	x	-2.6%&-2.6%[46.1 µM]	10.6%[46.1 µM]
32	O=C1CCC(C(=O)Nc2ccccc2N2CCOCC2)=NN1	-5.1%	x	5.3%	-1.4%	-8.8%	x	u	5.8%[46.1 µM]
33	O=C(Nc1ccc(Cl)c(C(F)(F)F)c1)NC1CC2CCCC(C1)N2Cc1ccccc1 (stereo not given)	x	x	5.3%	-0.8%	u	x	8.91µM*	u
34	COc1ccc(-c2ccc(C)cc2)cc1[C@H]1[C@H]2C=CC[C@@H](C)[C@@H]2C(=O)N1Cc1ccccc1	-4.8%	x	-3.8%	-0.5%	-29.2%	x	x	x
35	CCOc1ccc(CN2C(=O)c3ccccc3Sc3ccc(C(=O)NC4CCC(C)CC4)cc32)cc1 (stereo not given)	x	-5.2%	x	x	0.0%	5.01µM*	u	-18.8%[46.1 µM]
36	Cc1ccc(NC(=O)CC(=O)Nc2ccc(C)cc2)cc1	x	x	-26.1%	1.5%	12.2%	x	-10.4%&-10.4%[46.1 µM]	x
37	COc1cc(/C=N/NC(=S)NCCN2CCOCC2)cc(OC)c1OC	-0.6%	-6.1%	6.9%	12.0%	-5.1%	-8.3%	-7.8%	3.2%
38	Cc1cc(C)c(S(=O)(=O)N2CCN(C(=O)N3CCOCC3)CC2)c(C)c1	-1.0%	x	12.4%	1.3%	-15.6%	x	x	x
39	N#CC1=C(N)Oc2[nH]c(=S)[nH]c(=O)c2C12C(=O)Nc1ccccc12 (stereo not given)	6.3%	x	-13.2%	0.7%	-6.7%	x	-16.5%[46.1 µM]	14.1%[46.1 µM]
40	Clc1cccc(-c2ccc(CNCCCN3CCOCC3)o2)c1	0.6%	x	-5.1%	-0.3%	-18.1%	x	0.6%[46.1 µM]	14.9%
41	COC(=O)COc1ccc(NC(=O)C(c2ccccc2)c2ccccc2)cc1	25.5%	x	8.0%	-3.1%	-0.5%	x	x	x
42	O=[N+]([O-])c1ccc(CSc2ccc(S(=O)(=O)N3CCCCCC3)cn2)cc1	x	x	-21.0%	3.2%	u	x	u	u
43	C=CCCC(=O)N1CCCC(Cc2cccc(Cl)c2)(C(=O)OCC)C1 (stereo not given)	-24.8%	x	15.7%	3.1%	8.9%	x	u	-17.3%[46.1 µM]
44	COc1ccc(OCC(O)CNC(=O)c2sccc2Cl)cc1 (stereo not given)	-7.8%	x	-3.7%	-1.2%	0.0%	x	1.8%[46.1 µM]	-2.6%
45	COc1ccc(CC(=O)NCc2ccc(F)cc2)cc1S(=O)(=O)N1CCOCC1	x	x	-22.4%	-4.9%	-8.4%	x	-8.0%	-16.0%
46	COc1ccc(/C=C/C(=O)OC2CCCCC2CN(C)C)cc1 (stereo not given)	-0.9%	x	-5.8%	-0.8%	-15.5%	x	u	-1.2%
47	CSc1ccc(S(=O)(=O)Nc2ccc(F)cc2)cc1	-88.8%	-3.7%	0.7%	-10.2%	24.4%	-8.6%	u	-15.3%
48	Cc1nc(N)sc1N=Nc1ccc(F)cc1	2.0%	-8.1%	13.4%	-1.3%	38.1%[activator]	u	u	u
49	COc1cc(C2C(C(=O)c3cccs3)=C(O)C(=O)N2c2cc(C)on2)ccc1O (stereo not given)	13.2%	-5.5%	0.7%	-4.7%	17.5%	-15.1%	11.2%[46.1 µM]	18.2%
50	Oc1ccc(Cl)cc1N=Nc1ccccc1	3.3%	x	-16.9%	-3.1%	75.8%[activator]	x	x	x
51	Cc1ccccc1-n1c(SC(C)C(N)=O)nnc1-c1cccnc1 (stereo not given)	5.9%	4.5%	7.9%	6.8%	12.2%	-0.2%	1.3%	-4.6%
